# Sfp inh: Sfp phosphopantetheinyl transferase inhibition | Q9F4F7 | Biochemical Sfp PPTase activity, qHTS | Potency, µM, inactives show max response, negative = inhibition, actives largely listed as inhibitors | actives 3.5% (n = 310,000) | AID 1490; active means well fitted inhibition curve with a large enough effect; inconclusive means small, poorly fitted or top-dose-only effect, or another doubt; inactive means no such curve, though single readings can be large or run the other way;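 further: the enzyme is Sfp with the accession as filed and its product quenches rhodamine fluorescence; potency means the concentration at half of the fitted maximal effect; 0% = enzyme reaction without inhibitor and -100% = no enzyme wells; top concentration of the series not given in the record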
#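 Step 1, compound plus 15 nM Sfp-PPTase, 15 min, room temperature. Step 2, add rhodamine-CoA (5 uM) and BHQ-2-YbbR (12.5 uM). Step 3, read 525/598 nm fluorescence at 0 and 30 min.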
# ClpP mod: qHTS Assay for Activators of ClpP. AID 651965, 2013. actives 1.9% (n = 340,000). purified B. subtilis ClpP, FRET peptide cleavage, 20 min. Potency, µM (top dose mostly 57.5 µM), for the others: at the highest dose activity change, negative = active. ATP-dependent Clp protease proteolytic subunit (Bacillus subtilis (strain 168)), P80244; active = well fitted falling curve with a large enough effect; inconclusive = small, poorly fitted or top-dose-only effect; inactive = no such curve, though single readings can be large or run the other way; further: potency means the concentration at half of the fitted maximal effect; the source files actives as falling curves though it sought activators and does not explain the sign; nearly all actives have a fitted effect of over 65% in size; many hits overshoot -100%
# Target sequence (P80244 whole entry, looked up): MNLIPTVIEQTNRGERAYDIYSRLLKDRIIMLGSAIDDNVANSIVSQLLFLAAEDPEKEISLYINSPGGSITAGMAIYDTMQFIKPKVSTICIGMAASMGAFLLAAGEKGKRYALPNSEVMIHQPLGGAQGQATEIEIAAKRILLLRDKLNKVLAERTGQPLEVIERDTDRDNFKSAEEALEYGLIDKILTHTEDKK
#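 Purified B. subtilis ClpP, 10 microg/mL final in Tris/HCl pH8 with KCl, BSA, glycerol and Tween-20, cleaved an Abz/nitrotyrosine-quenched decapeptide. Fluorescence (ex 320, em 430) was read at 0 and 20 min at room temperature. Delta was normalized to 5.8 microM ADEP and DMSO/no-enzyme controls.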
# TRPV1 PAM: potentiators of human vanilloid receptor 1 (TRPV1); Q8NER1; TRPV1-expressing cells, Fluo-8 calcium influx, capsaicin EC20 potentiation; host cell line not named in the record; control for the full effect not named in the record; potentiation, % at 8.33 µM; actives 0.02% (n = 320,000); active means potentiation above 80%; inconclusive means 30% to 80%; inactive means below 30%; further: 0% is about no effect
# Target sequence (Q8NER1 whole entry, looked up): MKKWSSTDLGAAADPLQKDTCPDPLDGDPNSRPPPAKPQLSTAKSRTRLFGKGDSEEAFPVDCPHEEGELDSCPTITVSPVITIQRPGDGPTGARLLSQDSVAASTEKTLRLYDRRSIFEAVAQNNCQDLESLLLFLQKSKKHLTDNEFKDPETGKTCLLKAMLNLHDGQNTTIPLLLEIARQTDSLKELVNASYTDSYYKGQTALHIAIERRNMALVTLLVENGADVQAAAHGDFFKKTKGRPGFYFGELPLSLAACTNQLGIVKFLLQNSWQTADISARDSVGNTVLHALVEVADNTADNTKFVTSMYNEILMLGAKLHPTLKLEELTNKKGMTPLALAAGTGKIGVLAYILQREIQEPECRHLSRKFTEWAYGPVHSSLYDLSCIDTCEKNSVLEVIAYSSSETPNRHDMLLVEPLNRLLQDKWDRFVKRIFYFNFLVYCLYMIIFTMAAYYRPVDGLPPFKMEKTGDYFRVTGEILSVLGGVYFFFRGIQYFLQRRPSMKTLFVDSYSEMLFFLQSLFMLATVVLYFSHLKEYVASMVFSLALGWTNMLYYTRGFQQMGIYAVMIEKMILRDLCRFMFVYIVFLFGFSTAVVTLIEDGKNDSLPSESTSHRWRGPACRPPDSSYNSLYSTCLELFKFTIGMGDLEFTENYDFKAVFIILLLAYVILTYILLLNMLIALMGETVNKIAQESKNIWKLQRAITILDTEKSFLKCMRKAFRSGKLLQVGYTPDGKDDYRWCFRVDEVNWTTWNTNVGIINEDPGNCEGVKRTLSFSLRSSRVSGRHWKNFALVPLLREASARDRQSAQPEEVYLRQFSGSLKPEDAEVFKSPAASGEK
#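 TRPV1-expressing cells were cultured overnight at 35.5C and loaded with Fluo-8 calcium dye for 40 to 90 min at room temperature. After a 10 s baseline, compound was added and calcium influx was read kinetically for 3 min (ex 480/em 520 nm).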
# gsp antag: antagonizes gsp, the McCune-Albright syndrome mutation | gsp-mutant cells, cAMP HTRF, 30 min; control for the full effect not named in the record | Potency, µM (doses to about 76.9 µM), for the others: top-dose activity change, negative = inhibition, hits mostly inhibitors | actives 0.4% (n = 340,000) | AID 624288; active = falling curve of any shape with a large fitted effect; inconclusive = falling curve, mostly with a smaller effect; inactive = flat or rising curve; cell line not stated here;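 further: intracellular cAMP measured with PDE inhibitor Ro 20-1724 present during compound exposure; potency means the concentration at half of the fitted maximal effect; on the % scale 0 is the no-effect control and ±100 the full control effect; nearly all actives have a fitted effect of over 65% in size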
#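 Measurement of cellular cAMP by homogeneous time-resolved fluorescence following a 30 min compound exposure at 37C. The PDE inhibitor […] was present throughout; the assay buffer was DPBS with 0.05% BSA and 0.005% Tween 20.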
# Menin MLL FP FL: displaces fluorescein MLL peptide from human menin. Fluorescence polarization, fluorescein-MLL peptide displacement from menin. FP activity change, % at 61.4 µM. 290,000 tested, under 10 active; inconclusive = falling polarisation curve, or a change in total fluorescence; inactive = total fluorescence flat and polarisation flat or rising; no compound was filed as active; the % refers to the polarisation; negative = inhibition;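 further: % of control where 0% means no effect; inhibitors lower the polarisation; unlabelled MLL peptide was the positive control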
# gsp ag: gsp mutant agonism; Potency, µM (top dose mostly 76.9 µM), for the others: top-dose activation (cAMP increase), hits mostly activators; gsp mutant cells, cAMP HTRF, 30 min; control for the full effect not named in the record; actives 0.13% (n = 340,000); active = well fitted activation curve with a large enough effect; inconclusive = small, poorly fitted or top-dose-only effect, or another doubt; inactive = no such curve, though single readings can be large or run the other way; cell line not stated here;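 further: phosphodiesterase inhibitor Ro 20-1724 added with compounds to block cAMP breakdown; potency means the concentration at half of the fitted maximal effect; nearly all actives have a fitted effect of over 60% in size; about a fifth of the inactives were tested at one dose only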
#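 Cells stably selected in G418 were plated at 2000/well, grown 16-24 hr, then given compounds in DMSO with the PDE inhibitor […] (300 uM solution added) for 30 min at 37C; cAMP was read by HTRF.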
# CtBP-E1A blk: blocks the CtBP interaction with E1A; AlphaScreen GST-E1A/His-CtBP binding, 1536-well; hits give low values; control for the full effect not named in the record; actives 0.49% (n = 340,000); AID 651724; activity change, % (no concentration beside the values); in the data active means activity change below about -65%; inconclusive means about -30% to -65%; inactive means above about -30%; further: on the % scale 0 is the no-effect control and ±100 the full control effect; compound concentration not given in the record
#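 Steps: dispense buffer (Tris pH 8.0, NaCl 300 mM, TCEP 1 mM, BSA, Tween 20); add 5X protein mix (GST-E1A, His-CtBP, 125 nM each); pin 23 nL compound; 2 h at 37 °C, dark; add 5X beads (50 ug/mL); 1 h; read.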
# * = called active by the depositor; u = inconclusive; x = not tested or not shown; & = joins results of further samples; [ ] = remark or other dose.
SMILES,Sfp inh,ClpP mod,TRPV1 PAM,gsp antag,Menin MLL FP FL,gsp ag,CtBP-E1A blk
CCN(CC)CCNC(=O)c1cc(-c2ccco2)nc2ccccc12,-9.9%,-1.7%,1.9,17.7%,1.6,-3.1%[15.4 µM],0.4
COc1ccc(S(=O)(=O)CC2(O)CCN(C(=O)C(C)(C)C)CC2)cc1,18.8%,x,-0.3,-2.6%,-1.4,16.5%[15.4 µM],5.6
Cc1ccc(N(CC(=O)N2CCn3c2nc2ccccc23)S(=O)(=O)c2c(C)n[nH]c2C)cc1,1.7%,0.8%,8.8,-3.8%,-0.5,-3.6%,-3.5
O=C(Cn1cnc2c(nnn2Cc2ccccc2F)c1=O)OCc1ccccc1,-3.1%,2.0%,-24.1,-26.0%,2.6,-19.2%,0.0
COc1ccc(S(=O)(=O)CCC(=O)NC2CCCCC2)cc1,11.5%,-0.1%,-4.2,6.7%,-4.9,0.6%,10.4
O=Cc1cn[nH]c1-c1cccc([N+](=O)[O-])c1,18.2%,x,0.4,5.0%,22.1,-43.5%[inhibitor],6.0
CCC1CCCCN1C(=S)NCc1ccccc1 (centres undefined),7.9%,1.1%,13.4,18.1%,0.0,-6.3%,-2.5
CC1(C)CC(NC(=O)CSc2ccccc2)CC(C)(C)N1,20.4%,x,0.4,10.8%,2.4,-7.9%,-16.2
O=C(CN1CCN(Cc2ccccc2)CC1)Nc1ccc(S(=O)(=O)N2CCOCC2)cc1,2.3%,-0.5%,-0.1,11.0%,3.0,-8.7%,-13.5
CN(C)S(=O)(=O)c1ccc(NC(=O)CNc2cc(S(=O)(=O)N3CCCC3)ccc2OCC(F)(F)F)cc1,27.5%,-3.0%,12.7,-2.5%,6.5,8.9%,-0.1
CCOc1ccc(CCNC(=O)CCc2nc(-c3ccc(C)cc3)no2)cc1OCC,10.5%,-15.2%,6.3,4.3%,-0.5,8.4%,-0.7
Brc1ccc(C2=CC(c3ccco3)n3ncnc3N2)cc1 (centres undefined),-26.1%,0.5%,-5.9,3.8%,u,-4.8%[15.4 µM],-1.5
O=C(Nc1nc2c(s1)CCCC2=O)c1cnccn1,u,0.5%,6.3,7.0%,4.1,1.6%,0.7
O=C(O)COc1ccc2oc3c(c2c1)CCCC3,27.0%,-3.1%,-7.3,-12.5%,2.5,11.1%,-6.7
CN(CCn1ccnc1)Cc1cn(-c2ccccc2)nc1-c1ccc2c(c1)OCO2,11.7%,-1.9%,-2.7,4.1%,0.6,-4.0%[15.4 µM],2.9
COc1ccc(-c2cc(C(F)(F)F)n3nc(C(=O)N4CCOCC4)c(Cl)c3n2)cc1,-7.8%,-1.0%,-13.2,-5.5%,-1.8,-12.5%,0.6
Cc1cc([N+](=O)[O-])nn1CC(=O)N1CCCc2ccccc21,-13.5%,-1.0%,12.6,9.0%,2.9,-2.8%,3.2
CC1(C)C2CCC1(C)C(OC(=O)c1ccc(O)cc1)C2 (centres undefined),8.6%,-0.1%,-11.6,2.1%,-2.4,3.6%,0.0
O=c1[nH]c2cccnc2n1Cc1ccccc1,9.7%,4.0%,-2.7,5.0%,5.8,-23.4%,5.9
Cc1cc(OCc2cn3cccnc3n2)ccc1Cl,-4.3%,15.8µM*,-2.2,-0.6%,5.5,29.0%,-7.8
CC1(C)Oc2ccc3ccc(=O)oc3c2/C(=N/O)C1=O,10.7%,45.5%,7.3,7.8%,-3.8,u,7.8
CCc1c(N)nc(N)nc1Nc1ccccc1Cl,x,x,x,1.7%,x,-2.4%,5.6
CNC(=O)c1c(NC(=O)C2=COCCO2)sc(C)c1C,x,-2.3%,-15.2,-0.2%,x,-7.4%[15.4 µM],1.1
Cc1cccc(Nc2nnc(SCC(=O)Nc3ccc(C(=O)O)cc3)s2)c1,9.5%,x,5.3,-1.2%,-3.8,-9.8%[15.4 µM],-4.2
Cc1ccc(CONC(=O)c2cccc([N+](=O)[O-])c2)cc1,x,-0.7%,-17.0,11.0%,x,0.8%,-6.5
O=C(CN1C(=O)CCS(=O)(=O)c2ccccc21)Nc1ccc2c(c1)OCCO2,10.4%,0.0%,23.4,0.1%,4.8,12.7%,2.2
CCC(C)N(C(=O)c1csnn1)C(C(=O)NCc1ccc(F)cc1)c1ccccc1F (centres undefined),0.6%,x,-10.5,3.6%,1.0,-22.2%,0.8
Cc1cc(C)c(C(=O)CSc2nc(C)cc(=O)[nH]2)c(C)c1,0.0%,-29.8%,20.8,u,0.9,-9.6%[15.4 µM],24.1
Cc1cccc(-n2nnnc2SCC(=O)NCCN2C(=O)CSC2=O)c1,11.5%,-0.3%,-3.5,1.5%,2.4,5.0%,-0.9
CSc1nc(Sc2ccccc2Cl)c2ccccc2n1,-25.8%,31.6µM*,-7.7,23.6%,2.0,6.3%,3.0
Cc1ccc(C(=O)Nc2nc(=O)n(C(=O)C3CC3)s2)cc1,-8.2%,-1.3%,u,u,-1.1,-19.4%,14.0
COc1ccc(NC(=O)N(C)C[C@H]2Oc3ccc(NC(=O)NC4CCCCC4)cc3C(=O)N([C@H](C)CO)C[C@@H]2C)cc1,x,-2.7%,x,9.3%,x,-29.1%,0.0
O=C(O)c1ccc(S(=O)(=O)N(Cc2cccs2)CC2CCCO2)cc1 (centres undefined),-11.1%,-4.2%,-11.6,0.8%,-0.3,30.8%,0.0
c1ccc(-c2cn(C[C@H]3CC[C@@H]([C@@H]4CC[C@H](Cn5cc(-c6ccccn6)nn5)O4)O3)nn2)nc1,-10.2%,-1.3%,-11.0,-2.2%,0.0,-1.1%,-81.2*
COc1ccc(C)cc1NC(=O)c1nnn(CCc2ccccc2)c1N,10.0%,4.2%,17.4,10.6%,-0.4,-27.7%,5.9
CC(=O)N(C)c1ccc(NC(=S)NC(=O)/C=C/c2ccco2)cc1,-19.8%,0.7%,3.4,u,u,-50.1%[inhibitor],4.1
O=C(CSc1nnc(C2COc3ccccc3O2)o1)NC1CCCCC1 (centres undefined),17.3%,-0.7%,11.8,2.3%,3.5,u,0.9
O=C1C[C@@H](c2ccc(O[C@@H]3O[C@H](CO)[C@@H](O)[C@H](O)[C@H]3O)cc2)Oc2cc(O)ccc21,-14.2%,-11.6%,7.3,7.1%,-0.9,1.6%,x
COc1cccc(CNC(=O)C2CCC(=O)N(CC3CCCCC3)C2)c1OC (centres undefined),16.2%,x,-14.2,2.0%,x,-9.1%[15.4 µM],3.6
O=C(COc1ccc(Cl)cc1)OCc1ccc(Cl)cc1,x,x,x,7.2%,x,25.8%,127.0
COc1ccc(NS(=O)(=O)c2ccc(-c3n[nH]c(=S)n3Cc3ccccc3)cc2)cc1,-4.8%,-0.4%,-20.4,u,3.1,-57.6%[inhibitor],-17.1
COc1cc2cc(-c3ccc(OC)c(OC)c3C)nc(N)c2cc1OC,x,x,x,24.1%,x,2.6%,-12.8
O=C(Nc1ccccc1Cl)Nc1cccnc1Cl,3.9%,0.1%,-9.2,-2.9%,-0.3,-47.3%[inhibitor],-5.6
C=Cn1cc[n+](CC(=O)c2ccc(OC)c(OC)c2)c1,16.9%,-1.9%,14.9,2.2%,-1.9,4.6%,x
CCOC(=O)Nc1nnc(CCc2ccccc2)s1,20.6%,u,3.1,1.0%,3.3,-21.3%,4.6
Cc1ccc(N2CC(NC(=O)C(=O)c3c(C)[nH]c4ccccc34)CC2=O)cc1C (centres undefined),x,1.1%,-18.9,2.2%,x,10.2%,0.5
CC(C)Cn1c(=O)c2sccc2n2c(CCCC(=O)NC3CCN(Cc4ccccc4)CC3)nnc12,10.8%,x,9.8,0.0%,0.8,18.6%,1.6
O=C(CCc1ccccc1)Nc1ccnn1C1CCN(C/C=C/c2ccccc2)CC1,24.0%,0.3%,12.0,-4.7%,1.7,2.8%,-6.8
CCN(CC(=O)NC(C)C)C(=O)C(CCSC)NC(=O)c1ccccc1OC (centres undefined),15.4%,x,2.1,x,1.0,2.0%[15.4 µM],0.0
CCOC(=O)C(NC(=O)c1cccc(Cl)c1)(OCc1ccc(F)cc1)C(F)(F)F (centres undefined),32.2%[activator],-2.3%,13.6,2.3%,x,-36.6%[15.4 µM],0.0
CC(C)(C)NCCOCCOc1ccccc1-c1ccccc1,16.6%,3.7%,3.1,0.2%,-2.8,0.3%,27.2
CN1CCN(c2ccc(S(=O)(=O)N3CCOCC3)cc2NC(=O)C2CCCCC2)CC1,x,2.6%,x,-6.5%,x,28.1%,9.0
Cc1nn(-c2ccc(C(=O)O)cc2)c(=O)c2ccccc12,16.5%,-2.9%,-1.7,24.8%,0.8,u,-1.8
CCCC(=O)Nc1ccc2c(c1)nc1n2CCOC1,13.7%,-2.0%,-1.8,10.9%,-0.2,-5.6%,-2.1
O=c1oc2cc(Cl)ccc2n1CSc1nc2ccccc2s1,-3.6%,-0.5%,-2.7,-2.2%,-2.4,u,26.4
O=C(CN1CCN(c2cccc(Cl)c2)CC1)Nc1ccc([N+](=O)[O-])cc1C(=O)Nc1ccccc1F,25.8%,-1.6%,-6.1,-16.0%,1.7,-4.8%,x
Cc1ccc(/C=N/NC(=O)Cn2nnc(N)n2)cc1,15.8%,1.9%,-19.1,0.8%,-1.9,19.4%,3.3
CC1(C(=O)NCCN2CCOCC2)C=CCN1C(=O)c1ccccc1 (centres undefined),34.6%&15.4%,-1.5%,-1.8,7.4%,0.9&-7.7,6.6%,-8.4
C/C(=N\NC(=O)CNC(=O)c1ccccc1Br)c1ccco1,10.6%,x,15.7,3.5%,-0.2,-23.2%,7.0
CCOCCCNC(=O)C1CCCN1C(=O)Nc1ccccc1[N+](=O)[O-] (centres undefined),20.5%,x,-4.6,7.9%,-2.2,13.3%[15.4 µM],7.2
CCC(=O)Nc1ccc(C2=Nn3c(nnc3C(C)C)SC2)cc1,u,-1.5%,25.7,-10.2%,4.0,22.4%,4.7
COc1ccc(-c2[nH]ncc2CN2CCN(C(=O)c3cccs3)CC2)c(F)c1,-5.1%,-2.7%,5.4,-7.3%,x,-61.6%[inhibitor],2.5

# Screening data (PubChem)

# No enrichment for hits. Share with any hit: about 5.3%.
